Screening data deposited in PubChem BioAssay by National Center for Advancing Translational Sciences (NCATS).
ClpP mod: qHTS Assay for Activators of ClpP. AID 651965, 2013. purified B. subtilis ClpP, FRET peptide cleavage, 20 min. Potency, µM (highest dose often 57.5 µM), inactives show at the top dose activity change, negative = active. 1.9% of 340,000 active; active = well fitted falling curve with a large enough effect; inconclusive = small, poorly fitted or top-dose-only effect; inactive = no such curve, though single readings can be large or run the other way; note: potency is the fitted concentration of half-maximal effect; the source files actives as falling curves though it sought activators and does not explain the sign; nearly all actives have a fitted effect of over 65% in size; many hits overshoot -100%
Target sequence (P80244 whole entry, looked up): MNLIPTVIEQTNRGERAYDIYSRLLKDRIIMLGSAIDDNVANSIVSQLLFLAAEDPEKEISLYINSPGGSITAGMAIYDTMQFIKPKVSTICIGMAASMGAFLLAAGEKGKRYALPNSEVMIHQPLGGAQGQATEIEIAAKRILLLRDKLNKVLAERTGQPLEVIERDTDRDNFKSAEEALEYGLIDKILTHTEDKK
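FRET quenching reversal measured ClpP activation: 10 microg/mL B. subtilis ClpP at pH 8 with the FRET-FV decapeptide, read at 430 nm after 320 nm excitation. The 20-min minus 0-min signal was scaled between DMSO/no-enzyme wells and ADEP (5.8 microM final).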
Sfp PPTase inh: qHTS Assay for Inhibitors of Bacillus subtilis Sfp phosphopantetheinyl transferase (PPTase). 4'-phosphopantetheinyl transferase ffp (Bacillus subtilis), Q9F4F7. Biochemical Sfp PPTase activity, qHTS. Potency, µM, for inactives: max response, negative = inhibition, actives largely listed as inhibitors. 3.5% of 310,000 active; active = well fitted inhibition curve with a large enough effect; inconclusive = small, poorly fitted or top-dose-only effect, or another doubt; inactive = no such curve, though single readings can be large or run the other way;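 note: the enzyme is Sfp with the accession as filed and its product quenches rhodamine fluorescence; potency is the fitted concentration of half-maximal effect; 0% = enzyme reaction without inhibitor and -100% = no enzyme wells; top concentration of the series not given in the record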
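Compounds were incubated with enzyme (final 15 nM) for 15 min at room temperature before substrate addition started the reaction. Fluorescence at 525 nm excitation, 598 nm emission was recorded immediately and after 30 minutes.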
TRPV1 PAM: HTS Assay for Compounds that Act as Potentiators of the Vanilloid Receptor 1; Transient receptor potential cation channel subfamily V member 1 (Homo sapiens), Q8NER1; TRPV1-expressing cells, Fluo-8 calcium influx, capsaicin EC20 potentiation; host cell line not named in the record; control for the full effect not named in the record; potentiation, % at 8.33 µM; 0.02% of 320,000 active; active means potentiation above 80%; inconclusive means 30% to 80%; inactive means below 30%; note: 0% is about no effect
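Cells expressing TRPV1 were dye-loaded with Fluo-8 and read kinetically: 10 s baseline, 3 min after compound (agonist portion), then 2 min after EC20 capsaicin (allosteric enhancer portion). Calcium-bound dye fluorescence at 480/520 nm.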
gsp antag: qHTS for Antagonists of gsp, the Etiologic Mutation Responsible for Fibrous Dysplasia/McCune-Albright Syndrome: qHTS | AID 624288, 2012 | Potency, µM (top dose mostly 76.9 µM), without a hit: at the top dose activity change, negative = inhibition, usual class: inhibitors | gsp-mutant cells, cAMP HTRF, 30 min; control for the full effect not named in the record | 0.4% of 340,000 active; active = falling curve of any shape with a large fitted effect; inconclusive = falling curve, mostly with a smaller effect; inactive = flat or rising curve; cell line not stated here;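 note: intracellular cAMP measured with PDE inhibitor Ro 20-1724 present during compound exposure; potency is the fitted concentration of half-maximal effect; % is set by controls: 0 for no effect and ±100 for the full control effect; nearly all actives have a fitted effect of over 65% in size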
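Cells in G418 medium, seeded 16-24 h, 37C; buffer exchange to DPBS + 1 mM CaCl2, 0.5 mM MgCl2, 0.05% BSA; cpds in DMSO + […] (300 uM stock), 30 min 37C; HTRF cAMP detection.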
gsp agonist: qHTS for Agonist of gsp, the Etiologic Mutation Responsible for Fibrous Dysplasia/McCune-Albright Syndrome: qHTS; gsp mutant cells, cAMP HTRF, 30 min; control for the full effect not named in the record; Potency, µM (series often up to 76.9 µM), for the others: at the highest dose activation (cAMP increase), most hits filed as activators; 0.13% of 340,000 active; AID 624287, 2012; active = well fitted activation curve with a large enough effect; inconclusive = small, poorly fitted or top-dose-only effect, or another doubt; inactive = no such curve, though single readings can be large or run the other way; cell line not stated here;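 note: phosphodiesterase inhibitor Ro 20-1724 added with compounds to block cAMP breakdown; potency is the fitted concentration of half-maximal effect; nearly all actives have a fitted effect of over 60% in size; about a fifth of the inactives were tested at one dose only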
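Cells stably selected in G418 were plated at 2000/well, grown 16-24 hr, then given compounds in DMSO with the PDE inhibitor […] (300 uM solution added) for 30 min at 37C; cAMP was read by HTRF.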
D2 potentiator: Beta-Arrestin HTS for Positive Allosteric Modulators of the Human D2 Dopamine Receptor: Potentiators | DiscoveRx D2 beta-arrestin cells, luminescence, 90 min; 100% = 57 uM dopamine signal | potentiation, % (test concentration not listed) | 0.23% of 360,000 active | AID 624464, 2012; active = potentiation of 50% or more; inconclusive = 30% to 50%; inactive = 30% or less;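 note: compound concentration not given in the record; tested on top of an EC20 dose of dopamine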
Target sequence (P14416 whole entry, looked up): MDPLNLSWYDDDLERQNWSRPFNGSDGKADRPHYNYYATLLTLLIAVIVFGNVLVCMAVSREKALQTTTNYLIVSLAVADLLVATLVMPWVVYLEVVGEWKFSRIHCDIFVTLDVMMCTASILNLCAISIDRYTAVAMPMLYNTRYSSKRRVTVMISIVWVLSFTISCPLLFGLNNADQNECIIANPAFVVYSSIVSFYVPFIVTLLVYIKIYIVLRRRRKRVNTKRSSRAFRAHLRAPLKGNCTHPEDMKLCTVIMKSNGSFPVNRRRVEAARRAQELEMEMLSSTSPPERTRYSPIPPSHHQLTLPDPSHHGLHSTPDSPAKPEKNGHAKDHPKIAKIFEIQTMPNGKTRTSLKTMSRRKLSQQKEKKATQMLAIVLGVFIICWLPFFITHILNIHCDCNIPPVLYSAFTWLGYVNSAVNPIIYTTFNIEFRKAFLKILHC
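D2 cells co-treated with compound plus 50 nM dopamine (EC20) for 90 min at 37 deg C to detect potentiation. Beta-arrestin recruitment was read as enzyme-fragment luminescence after 1 h at ambient temperature. Full response was set by 57 uM dopamine.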
Menin MLL FP FL: qHTS Assay for Inhibitors Targeting the Menin-MLL Interaction in MLL Related Leukemias: Competition With Fluorescein Labeled MLL-derived Peptide | Fluorescence polarization, fluorescein-MLL peptide displacement from menin | FP activity change, % at 61.4 µM | 290,000 tested, under 10 active; inconclusive = falling polarisation curve, or a change in total fluorescence; inactive = total fluorescence flat and polarisation flat or rising; no compound was filed as active; the % refers to the polarisation; negative = inhibition;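 note: % of control where 0% means no effect; inhibitors lower the polarisation; unlabelled MLL peptide was the positive control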
The depositor's hits bear a star; ? = inconclusive; . = no result given; [ ] = another dose, or the depositor's remark. Rows were taken by chance; 5.1% or so of the library scored in one or more.

SMILES	ClpP mod	Sfp PPTase inh	TRPV1 PAM	gsp antag	gsp agonist	D2 potentiator	Menin MLL FP FL
Cc1cc(N)n(-c2ccccc2C)n1	.	12.0%	10.9	.	9.3%[15.4 µM]	-4.5	0.0
Cc1csc2c(N3CCN(C(=O)c4ccc(C(C)(C)C)cc4)CC3)ncnc12	-2.7%	-18.4%	-4.4	?	3.3%	-17.7	-0.2
CN(C)c1ccc(C(CNC(=O)c2ccco2)N2CCCC2)cc1 (stereo not given)	-2.2%	10.7%	-6.7	-2.0%	?	-32.0	.
CN(C(=O)COC(=O)C1CSC2(C)CCC(=O)N12)c1ccccc1 (stereo not given)	28.2µM*	.	10.3	2.2%	13.3%	6.6	.
Cc1ccc(-n2c3c(cc(C(=O)N4CCN(C)CC4)c2=O)C(=O)CC(C)(C)C3)cc1	-3.2%	24.0%	4.8	3.8%	41.1%	-5.6	0.9
COC(=O)CCCCCCCCC(O)CN(C)C (stereo not given)	-1.3%	10.4%	-8.1	10.6%	1.4%	-1.6	0.5
COC(=O)c1c(NC(=O)c2nc3nc(C)cc(C(F)F)n3n2)sc2c1CCC2	-1.4%	-12.2%	91.1*	-10.2%	-1.4%	-2.6	5.4
CCOC(=O)CNC(=O)CSc1nnc(-c2ccc(OC)cc2)n1CC	?	17.2%	-5.9	2.2%	-1.7%[15.4 µM]	-10.3	1.4
Cc1ccsc1/C=N\NC(=O)Cn1nnc2ccccc21	-5.0%	15.2%	1.4	7.8%	-14.1%	-12.8	1.7
CC(=O)c1ccc(NC(=O)CN2C(=O)/C(=C/C=C/c3ccccc3)SC2=S)cc1	-0.3%	-9.7%	-0.8	-16.8%	-2.5%	-16.7	14.9
COc1cc(C(=O)CSc2nncn2C)cc(OC)c1OC	-0.7%	?	1.1	3.3%	-6.3%	-7.5	-0.2
CC(/C=C/c1ccc2c(c1)OCO2)=N/NC(=O)COc1ccc(C)cc1	0.8%	18.9%	7.4	2.2%	-32.2%[inhibitor]	-2.7	0.7

Reprinted from the listing (4 entries):
SMILES	ClpP mod	Sfp PPTase inh	TRPV1 PAM	gsp antag	gsp agonist	D2 potentiator	Menin MLL FP FL
Cc1cc(N)n(-c2ccccc2C)n1	.	12.0%	10.9	.	9.3%[15.4 µM]	-4.5	0.0
Cc1csc2c(N3CCN(C(=O)c4ccc(C(C)(C)C)cc4)CC3)ncnc12	-2.7%	-18.4%	-4.4	?	3.3%	-17.7	-0.2
CN(C)c1ccc(C(CNC(=O)c2ccco2)N2CCCC2)cc1 (stereo not given)	-2.2%	10.7%	-6.7	-2.0%	?	-32.0	.
CN(C(=O)COC(=O)C1CSC2(C)CCC(=O)N12)c1ccccc1 (stereo not given)	28.2µM*	.	10.3	2.2%	13.3%	6.6	.

The listing continues:
SMILES	ClpP mod	Sfp PPTase inh	TRPV1 PAM	gsp antag	gsp agonist	D2 potentiator	Menin MLL FP FL
CCCCNC(=O)c1cc2c(=O)n(CC)c3ccccc3c2s1	-0.8%	6.6%	-12.3	2.1%	-2.7%[15.4 µM]	-8.7	0.6
COc1ccc(-n2c3c(cc(C(=O)Nc4ccc(C)cc4)c2=O)C(=O)CCC3)cc1	?	.	.	12.2%	?	6.3	.
COc1ccc(CNC(=O)c2cccc3c2C(=O)N(Cc2cccnc2)C3)cc1	-2.7%	11.4%	7.3	16.0%	24.4%	-3.1	1.2
COc1cccc(-c2nc3ccc(C(=O)N4CCCC(O)C4)cc3o2)c1 (stereo not given)	?	1.4%	-6.5	-1.9%	-57.3%[inhibitor]	-22.0	.
COc1ccc(N2CCN(C(=O)c3ccc(CS(=O)Cc4ccc(Cl)cc4)o3)CC2)cc1 (stereo not given)	1.7%	1.1%	?	2.9%	-2.9%	1.7	1.8
COC(=O)c1cc2c(-c3ccccc3)cc3ccccn3c-2c1C(=O)OC	6.7%	-11.1%	-4.2	7.2%	?	-38.1	?
Cc1cc2oc(=O)cc(CN3CCCCC3)c2cc1C(C)C	-13.2%	-16.1%	-14.6	-32.0%	17.1%	-17.6	6.8
O=C(Nc1cccc([N+](=O)[O-])c1)N1CCN(c2ccccc2)CC1	.	-13.1%	-16.9	-1.8%	-14.1%[15.4 µM]	-19.1	0.7
O=C(CSC(=O)c1ccccc1)Nc1ccccc1F	.	.	.	12.6%	4.0%	-3.8	.
CC(=O)c1sc(NC(=O)COc2ccc(C(C)C)c(C)c2)nc1C	.	19.8%	22.9	-0.1%	1.2%[15.4 µM]	5.3	-0.5
C/C(=N\NC(=O)c1cccs1)c1c(O)cc(C)oc1=O	-1.2%	22.3%	-17.7	11.2%	2.8%	-17.4	.
CS(=O)(=O)N(CC(=O)N1CCCCCC1)c1ccccc1	-0.2%	10.5%	4.0	3.7%	-17.6%	5.2	4.0
CC1CCN(CCCNC(=O)c2cc3sccc3n2C)CC1	-0.8%	-19.6%	-2.9	1.3%	12.0%	-18.5	-1.3
O=C(C[C@@H]1C/C=C\C[C@@H](Cc2ccc(F)cc2)C(=O)OC[C@@H]2CCCN2C1=O)N[C@H](CO)Cc1ccccc1	2.5%	.	.	-14.7%	.	-5.5	.
NC(=O)c1ccc(N2CCCCC2)c(N2C(=O)C3C4C=CC(C4)C3C2=O)c1 (stereo not given)	-0.4%	13.7%	4.7	-0.3%	8.7%	0.9	-4.0
Cc1ccccc1NS(=O)(=O)c1ccc(NC(=O)N2CCCCC2)cc1	-3.4%	11.4%	-13.0	27.0%	-17.8%	?	2.3
CN(C)CCCNC(=O)c1cc2sc3ccccc3c2s1	.	-27.0%	-0.4	20.9%	23.6%[15.4 µM]	-18.0	1.2
CCOC(=O)N1CCN(C(=O)c2ccc(Cn3c(=S)[nH]c4cc5c(cc4c3=O)OCO5)cc2)CC1	-2.7%	5.5%	-12.0	?	-22.1%	14.7	4.4
CC1(C)CC(=O)c2sc(NC(=O)c3ccccc3)nc2C1	.	-6.0%	-18.5	.	.	.	1.0
O=C(NNC(=O)c1ccc(S(=O)(=O)N2CCCC2)cc1)c1ccc(Br)cc1	-1.0%	.	8.3	-0.1%	-2.2%	-8.9	.
O=S1(=O)N=C(N2CCN(c3ccc(F)cc3)CC2)c2ccccc21	-6.4%	10.6%	20.4	11.9%	?	1.8	4.6
CN(CC(=O)OCC(=O)NCC(F)(F)F)S(=O)(=O)c1ccc(Cl)cc1	.	22.9%	0.2	?	-2.4%[15.4 µM]	2.6	0.8
CCN1CCN(C(=O)N[C@@H](C(=O)N[C@@H]2C(=O)N3[C@@H]2SC(C)(C)[C@@H]3C(=O)O)c2ccccc2)C(=O)C1=O	.	20.8%	-13.7	.	.	.	3.7
COc1cc(/C=C2/NC(=O)N(Cc3ccccc3F)C2=O)cc(OC)c1O	.	-13.8%	-10.5	-1.3%	-16.4%[15.4 µM]	12.4	?
COc1ccc(C(C(=O)NC2CCCCC2)N(C(=O)CCl)c2ccc(Cl)cc2)cc1 (stereo not given)	0.0%	12.0%	3.6	-9.9%	-37.1%[inhibitor]	-32.9	0.2
Cc1cnc(NC(=O)CN(C)S(=O)(=O)c2ccc(Cl)cc2)s1	-0.8%	-8.1%	-13.9	12.0%	-1.9%	0.1	2.8
CSc1ncccc1C(=O)Nc1nc2ccc(Oc3ccccc3)cc2s1	-5.6%	2.9%	-1.8	?	12.0%	-10.9	7.2
CCNS(=O)(=O)c1ccc(CCC(=O)O)cc1	.	15.2%	7.6	0.4%	-9.8%	-2.8	3.9
O=C(c1ccc(N2CCOCC2)c([N+](=O)[O-])c1)N1CCCCC1	-0.2%	13.0%	-16.0	1.3%	-23.4%	-6.7	.
COc1ccc2c(=O)cc(C(F)(F)C(F)(F)F)oc2c1	-10.5%	4.5%	1.5	10.7%	-10.0%	1.6	2.5
COc1ccc(C(C(C(=O)c2cccs2)N2CCOCC2)N2CCOCC2)cc1OC (stereo not given)	-3.0%	4.3%	2.4	-8.0%	-31.1%[inhibitor]	-1.9	-1.7
O=C(Nc1nc2ccccc2[nH]1)c1cccc(Br)c1	.	11.7%	-6.6	-13.1%	-4.7%	-2.2	1.6
CC(=O)Nc1c(C(=O)O)oc2ccc(Cl)cc12	?	15.8%	-9.9	11.9%	4.7%	-9.2	2.3
COc1cc2c(cc1OC)CN(Cc1nc3ccsc3c(=O)[nH]1)CC2	?	-36.4%	4.1	15.5%	-0.3%	-17.9	?
Cc1cccc(NCc2ccccc2O)c1	-0.8%	10.7%	-5.2	4.1%	3.9%	24.9	3.4
CN1CCN(CCCNCc2cn(CCC#N)c3ccccc23)CC1	.	56.2µM*	0.1	8.7%	-18.7%[15.4 µM]	-4.5	-14.0
CC[C@]12c3[nH]c4cc(CCC(=O)N(C)C)ccc4c3CCN1C(=O)[C@@H](CC(=O)NC(C)(C)C)C[C@@H]2C(=O)N1CCN(C(=O)c2ccco2)CC1	-0.5%	.	.	5.6%	.	0.4	.
O=C(CSc1ncccn1)N1CCN(S(=O)(=O)c2ccccc2)CC1	.	6.1%	-9.6	7.8%	32.9%	2.0	1.1
O=C(NC(=S)N1CCCCCC1)c1ccc(Cl)cc1Cl	.	19.6%	0.4	-3.1%	16.6%	-2.1	0.7
CCCOP(=O)(OCCC)C(Nc1cccc(C(F)(F)F)c1)c1ccc(C)cc1 (stereo not given)	-2.1%	17.6%	-7.7	1.2%	29.4%	-12.8	-4.0
CCN(CC)S(=O)(=O)c1ccc(-c2nnc(SCC(N)=O)n2CC)cc1	.	-7.6%	6.2	9.8%	-46.9%[inhibitor]	-5.8	-3.9
Cc1cc(C)c2cc(C(O)c3nnnn3Cc3ccccc3)c(=O)[nH]c2c1 (stereo not given)	?	-4.2%	14.1	-0.4%	-2.2%	4.3	4.1
O=C(Nc1cc(C(F)(F)F)ccc1N1CCOCC1)c1cn2ccccc2n1	2.8%	23.4%	-1.5	15.5%	-5.4%	-7.5	5.2
